# Screens deposited in PubChem BioAssay by National Center for Advancing Translational Sciences (NCATS).
# AID923: qHTS Assay for Allosteric/Competitive Inhibitors of Caspase-1: Spectroscopic Profiling in AFC Spectral Region. AID 923, 2007. compound fluorescence, AFC spectral region (405/520 nm); almost no hit is shown here. 75,000 tested, 1.1% active. Potency, µM (highest dose often 57.5 µM), for the others: at the highest dose fluorescence increase, hits mostly activators; active = well fitted activation curve with a large enough effect;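 also: 0% is about no effect; scaled to a free AFC standard on each plate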
#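 Compound autofluorescence profiled at 405 nm ex/520 nm em during kinetic caspase 1 run (50 nM enzyme, 5 uM Ac-WEHD-AFC, HEPES pH 7.5, 10 mM DTT). Titration up to 57 uM; baseline from regression intercept, normalized to AFC standard curve.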
# TSHR agonist: qHTS Assay for Agonists of the Thyroid Stimulating Hormone Receptor | Potency, µM (series often up to 57.1 µM), inactives show top-dose activation, hits mostly activators | HEK293-CNG-TSHR cells (CNG channel as cAMP sensor), membrane potential dye, cAMP | 73,000 tested, 0.48% active | Thyrotropin receptor (Homo sapiens), P16473 | AID 926, 2007; active = well fitted activation curve of enough size with the parental cells flat; inconclusive = any curve in the parental cells; inactive = parental cells flat and receptor cells flat or falling; also: % of control where 0% means no effect; weak receptor curves with flat parental cells got no call and are not listed
#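 cAMP rise detected as CNG-channel membrane depolarization by fluorescent dye (emission 590 nm), 30 min after compound, following 60 min dye loading containing 100 uM RO 20-1724 at room temperature. Cells: TSHR/CNG HEK 293, with parental CNG HEK 293 as control.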
# Starred values were filed as active, the others as inactive. Potency is read from the fitted curve at half-maximal effect. Not all compounds are listed (hit frequency here may not be typical).
SMILES,AID923,TSHR agonist
CCC1C(=O)OCC1Cc1cncn1C (stereo unspecified),-4.8%,10.9%
